Prx2 Sm inh: Schistosoma Mansoni Peroxiredoxins (Prx2) | S. mansoni Prx2 activity coupled to TGR/GSH (TGR is thioredoxin glutathione reductase), NADPH fluorescence loss, qHTS; some inactives read as strong as hits | Potency, µM | actives 0.07% (n = 65,000) | AID 448, 2006; active means full or partial inhibition curve with a strong effect at the top dose; inconclusive means weaker partial or single-point curve; inactive means no accepted curve; also: series up to 57 µM; many of its hits are not listed in these tables
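Enzyme mix: 100 uM NADPH, 25 nM TGR, 700 uM GSH, 50 nM Prx2 in 100 mM phosphate pH 7.4, 10 mM EDTA, 0.01% Tween-20. 15 min RT with compound; NADPH/GSH added, H2O2 starts reaction; NADPH fluorescence read 8 min.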
Anthrax LT inh: qHTS Assay for Anthrax Lethal Toxin Internalization | Cells, anthrax lethal toxin internalization, FRET ratio (460/530) | AID 912, 2007 | Potency, µM (top dose mostly 40 µM), for the others: top-dose activity change, negative = inhibition, most hits filed as inhibitors | actives 0.67% (n = 70,000); active = well fitted falling ratio curve with the 530 nm signal flat; inconclusive = other ratio curves, or a change in one channel alone; inactive = flat curves in the ratio and both channels; the % refers to the ratio; also: % is scaled to controls: 0 for no effect and ±100 for the full control effect; nearly all actives have a fitted effect of over 50% in size; tested in ME-180 cells; beta-lactamase reporter
* = called active by the depositor; ? = inconclusive; / = no result given; & = joins results of further samples; [ ] = another dose, or the depositor's remark. Potency is read from the fitted curve at half-maximal effect. A portion of the library; count on the stated rates, not on these rows.

Results follow in this order: Prx2 Sm inh | Anthrax LT inh
COC(=O)c1cc2c(cc1Cl)SC(=NCCCN1CCOCC1)NS2(=O)=O
  >57 | -9.3%
CCOC(=O)c1sc(NS(=O)(=O)c2ccc(NC(C)=O)cc2)nc1C
  >57 | -0.9%
O=C(c1ncc[nH]1)c1ccccc1C(=O)N1CCOCC1
  >57 | 15.0%
Cc1ccccc1S(=O)(=O)Cc1ccc(C(=O)N2CCN(c3ccc(F)cc3)CC2)o1
  >57 | 18.1%
O=C(Cc1cccs1)Nc1ccc(Cl)cc1
  >57 | 6.9%
CC(C)CN(Cc1cc2ccccc2[nH]c1=O)C(=O)c1cccnc1
  >57 | 4.6%
CSc1nsc(SC)c1C(=O)OCC(F)(F)F
  >57 | ?
C[C@H](O)[C@H](O)[C@@H]1CNc2nc(N)[nH]c(=O)c2N1
  >57 | 9.3%
COCCn1nnnc1SCC(=O)N1CCCCC1
  >57 | 9.5%
C=C(C)c1ccc(C(C)(C)NC(=O)NCc2ccco2)cc1
  >57 | ?
C=CCNC(NC(=O)c1ccccc1)(C(=O)OCC)C(F)(F)F (configuration not stated)
  >57 | -10.2%
CCc1nn2c(=O)cc(CSc3nc4sc5c(c4c(=O)n3C)CCCC5)nc2s1
  >57 | 2.8%
COc1ccc(C(O)c2nc3ccccc3s2)cc1 (configuration not stated)
  >57 | -0.2%
COc1ccc(C(=O)Nc2ccc(S(=O)(=O)Nc3onc(C)c3C)cc2)cc1OC
  >57 | 7.8%
COc1cccc(C2=NOC(C(=O)Nc3cccc(C(C)=O)c3)C2)c1OC (configuration not stated)
  >57 | 6.4%
O=C(NCCCN1CCCCCC1)C1CC(=O)N(CCc2ccccc2)C1 (configuration not stated)
  >57 | 2.3%
CCNC[C@H](O)c1cccc(O)c1
  >57 | 6.2%[3.58 µM]
O=C(CCC1CCCCC1)Nc1ccccc1O
  >57 | 18.3%
COc1ccc(-c2cc(-c3ccc(OC)cc3)[nH]n2)cc1
  >57 | ?
C(=N\c1nc2ccccc2n1CCN1CCCCC1)/c1ccc2c(c1)OCO2
  >57 | ?

Ordered by molar mass (ascending): some entries from above.
Results follow in this order: Prx2 Sm inh | Anthrax LT inh
O=C(Cc1cccs1)Nc1ccc(Cl)cc1
  >57 | 6.9%
CC(C)CN(Cc1cc2ccccc2[nH]c1=O)C(=O)c1cccnc1
  >57 | 4.6%
CCOC(=O)c1sc(NS(=O)(=O)c2ccc(NC(C)=O)cc2)nc1C
  >57 | -0.9%
COC(=O)c1cc2c(cc1Cl)SC(=NCCCN1CCOCC1)NS2(=O)=O
  >57 | -9.3%

Remaining list, next part:
Results follow in this order: Prx2 Sm inh | Anthrax LT inh
O=C(NC1CCCC1)c1nc2c(nnn2Cc2cccc(Cl)c2)c(=O)[nH]1
  >57 | ?
CN(C)CCN1C(=O)c2oc3ccc(Cl)cc3c(=O)c2C1c1cccc(Br)c1 (configuration not stated)
  >57 | 1.1%
COc1ccc(Cl)cc1NC(=O)CN(C)C(C)C(=O)NCC1CCCCC1 (configuration not stated)
  >57 | -18.3%
COc1ccc(NC(=O)N2CC[C@@]3(CCCN(C(=O)c4c(C)noc4C)C3)C2)cc1
  >57 | -3.4%
CCc1oc2ccccc2c1C(=O)c1cc(Br)c(O)c(Br)c1
  >11.4&>25.6 | -9.7%[8 µM]
COc1ccc(-c2cc(C(=O)O)[nH]n2)cc1OC
  >57 | 5.2%
COC(=O)c1[nH]c2ccc(C)cc2c1NC(=O)CCN1CCN(Cc2ccc3c(c2)OCO3)CC1
  >57 | -12.7%
COc1cccc(OCC(O)CN2CCC(C)CC2)c1 (configuration not stated)
  >57 | 7.9%
CCOCCCNC(=O)Cn1ncc2c(=O)oc3ccccc3c21
  >57 | -13.8%
O=C(NCc1cccs1)NC1CCCCC1
  >57 | 4.8%
C=CCNC(=O)c1c(N)n(-c2cccc(S(N)(=O)=O)c2)c2nc3ccccc3nc12
  >57 | /
Cc1cc(C)n2nc(C(=O)OCCOc3cccc(Br)c3)nc2n1
  >57 | 7.8%
COc1ccc(OC)c(NC(=O)CSc2nnc(Cc3cccn3C)n2-c2ccc(F)cc2)c1
  >57 | -12.3%
O=S(=O)(N1CCCCC1)N1CCN(c2ccc(F)cc2)CC1
  >57 | -11.7%
CCCOc1cccc(NC(=O)c2cc(C)oc2C)c1
  / | -23.5%
CC(=O)c1ccc(N2CCN(C(=O)c3cc4c(-c5ccccc5F)nn(C)c4s3)CC2)cc1
  >57 | ?
CCCS(=O)(=O)N1CCN(CCCc2ccccc2)CC1
  >57 | 0.2%
COC(=O)[C@@]1(Cc2ccc(OC)cc2)[C@H]2c3cc(C(=O)N4CCCC4)n(CCN4CCOCC4)c3C[C@H]2CN1C(=O)c1ccccc1
  >11.4 | 8.2%
CN1CCN(c2c[nH]c(=O)[nH]c2=O)CC1
  >57 | 0.8%
O=C(c1ccc2c(c1)OCO2)N1CCCC(c2ccccc2)C1 (configuration not stated)
  >57 | -13.0%
Cc1cc2ccccc2cc1CN1CCOCC1
  >57 | -9.1%
CCC(NS(=O)(=O)c1ccc(C)cc1)C(=O)N1CCC2(O)CCCCC2C1 (configuration not stated)
  >57 | 11.9%
COc1cccc(-n2c(SCC(=O)Nc3cc(C)on3)nc3c([nH]c4ccccc43)c2=O)c1
  >57 | ?
Cc1nc2ccccc2nc1-c1ccc(N=[N+]([O-])c2ccc(-c3nc4ccccc4nc3C)cc2)cc1
  >57 | -6.0%[8 µM]
CC(=O)NCC(=O)OCC(=O)Nc1ccc(C(C)=O)cc1
  >57 | 0.5%
O=C(O)CCCn1nc(-c2ccccc2)c2ccccc21
  >57 | -9.2%
O=C1c2ccccc2C(=O)N1CCn1nc(Cl)nc1Cl
  >57 | -8.7%
CC1CCN(c2c(NCc3ccc(C(=O)NCC4COc5ccccc5O4)cc3)c(=O)c2=O)CC1 (configuration not stated)
  >57 | -2.2%
O=C(c1ccco1)n1nc(NCc2ccccc2)nc1NCc1ccccc1
  >57 | ?
COCC(C)n1c(C)cc(C(=O)CSc2nc3ccccc3c(=O)[nH]2)c1C (configuration not stated)
  >57 | -6.2%
Cc1ccc(NC(=O)c2cc(NC(=O)C3CC=CCC3C(=O)O)ccc2N2CCOCC2)cc1 (configuration not stated)
  / | -5.9%
O=C(NCC1CCCO1)c1ccc2nc(N3CCCCC3)sc2c1 (configuration not stated)
  >57 | -2.6%
COc1ccc(-n2nnnc2SCC(=O)c2ccc(O)c(O)c2)cc1
  >57 | ?
Cc1nn(CC(=O)Nc2ccc(C(=O)N(C)C)cc2)c(=O)c2ccccc12
  >57 | -2.0%
CCCOc1ccc(N2CC(C(=O)Nc3ccccc3F)CC2=O)cc1 (configuration not stated)
  >57 | -9.1%
O=[N+]([O-])c1cc(C(F)(F)F)cc([N+](=O)[O-])c1Cl
  / | 0.2%
CN1CC(=O)N(CC(=O)Nc2ccc(Cl)c(C(F)(F)F)c2)C1=O
  >57 | 3.3%
CCc1nnc2c3cnn(-c4ccccc4)c3ncn12
  >57 | 2.4%
CCOC(=O)N1CCN(C(=O)c2cn(C)c(=O)c3c2c2ccccc2n3C)CC1
  >57 | 4.6%
COc1ccc(C(=O)N2CCN(c3c(C)cccc3C)CC2)cc1OC
  >57 | 10.3%
Cc1cc(C)c2c(=O)[nH]c(=O)n(Cc3ccccc3)c2n1
  >57 | -7.8%
Cc1ccc(C(C(=O)NCc2ccc(F)cc2)N(C(=O)c2csnn2)C2CC2)o1 (configuration not stated)
  >57 | ?
CCCCNC(=O)c1cccc(C(=O)NCCCC)c1
  >57 | 2.9%
CC1(C)CC(=O)CC(=Nc2ccc(C(=O)O)cc2)C1
  >57 | 5.9%
Cc1ccccc1Cn1cc(S(=O)(=O)CC(=O)N2CCCCC2)c2ccccc21
  >57 | 6.0%
COC(=O)c1ccc(Cn2nnc3ccccc3c2=O)o1
  >57 | 5.9%
Cc1ccc2oc(=O)c3cnn(CC(=O)N4CCCCCC4)c3c2c1
  >57 | ?
CCOC(=O)N1CCN(C(=O)c2cn(CC)c3ccc(S(=O)(=O)N4CCCC4)cc3c2=O)CC1
  >57 | -3.6%
COc1cccc(-c2cc(C(F)(F)F)nc(N3CCN(c4ccccc4)CC3)n2)c1
  >57 | 2.5%
CCCCOC(=O)c1cccc(NC(=O)CC)c1
  >57 | -2.4%
COc1cc(NC(=O)CN2C(=O)NC(C)(CC(C)C)C2=O)cc(OC)c1 (configuration not stated)
  >57 | 10.6%
O=C1Nc2ccccc2C12Nc1ccccc1S2 (configuration not stated)
  >57 | /
O=C(CSc1nnc(-c2ccco2)n1CC1CCCO1)N1CCCCC1 (configuration not stated)
  >57 | -14.6%
Cc1c(NC(=O)c2noc3c2CCc2ccccc2-3)c(=O)n(-c2ccccc2)n1C
  >57 | -14.2%
COCCN1Cc2cccc(C(=O)Nc3cc(C)cc(C)c3)c2C1=O
  >57 | 5.2%
CCc1cc(C(=O)OC)c(NC(=O)CCC(=O)O)s1
  >57 | 1.1%
CC(NC(=O)c1ccco1)c1ccc2c(c1)OCCO2 (configuration not stated)
  >57 | ?
CC(=O)c1cc(OC(=O)c2ccncc2)ccc1OC(=O)c1ccncc1
  >57 | 11.5%
O=C(NCCCNC(=O)C(F)(F)C(F)F)C(F)(F)C(F)F
  >57 | 1.1%
O=c1[nH]cnc2scc(-c3ccc(F)cc3)c12
  >57 | -6.6%

Going on with the list:
Results follow in this order: Prx2 Sm inh | Anthrax LT inh
NC(=NCCC[C@H](N)C(=O)O)N[N+](=O)[O-]
  >57 | ?
COC(=O)c1c(N2C(=O)CCC2=O)sc2c1CCCC2
  >57 | 2.3%
CCOC(=O)c1cnn(-c2ccccc2)c1NC(=O)c1cccs1
  / | -2.0%
C[C@H](NC(=O)NCc1cccs1)C(=O)O
  >57 | -8.8%
COC(=O)N1CCC2(CC1)CN(C(=O)Nc1cccc(C#N)c1)C2
  >57 | -3.0%
N#CCc1c(C#N)c(N)nc(N2CCN(S(=O)(=O)c3ccccc3)CC2)c1C#N
  >57 | 34.7%
CCOC(=O)CNC(=O)c1sc2nc(C)cc(C)c2c1N
  >57 | ?
Cc1cc(C)cc([N+](=O)[O-])c1
  / | -17.4%
O=C(CCn1c(=O)c2ccccc2n(Cc2cc(=O)n3ccccc3n2)c1=O)NCc1ccco1
  >57 | 4.5%
CCc1c(C)nc2cc(-c3ccc(OC)c(OC)c3)nn2c1N1CCCC1
  >57 | -19.9%
COCCn1c(=O)c(C)nc2cnc(Oc3cccc(Cl)c3)nc21
  >57 | -11.6%
O=C(NCc1ccc2c(c1)OCO2)c1c(O)c2cccc3c2n(c1=O)CCC3
  >57 | -5.3%
CC(=O)Nc1ccc(S(=O)(=O)n2cnc3cc(C)c(C)cc32)cc1
  / | -12.7%
CC(=O)Nc1ccc(S(=O)(=O)N2CCN(c3cc(C)ccc3C)CC2)cc1
  / | -14.2%
Cc1nn(-c2ccccc2)c(C)c1NC(=O)Cc1cccs1
  >57 | -11.2%
CC(=O)N1CC2(C)CN(C(C)=O)CC(C)(C1)C2
  >57 | -3.2%
O=C(Nc1ccc(N2CCOCC2)c(Cl)c1)c1ccco1
  >57 | -8.5%
N#Cc1nc(COc2ccc(-c3ccccc3)cc2)oc1NCCCN1CCOCC1
  >57 | -8.5%
c1ccc(-c2csc(-n3cnnn3)n2)cc1
  >57 | 1.3%
Cc1nnsc1C(=O)Nc1ccccc1Cl
  >57 | -13.7%
CCOc1ccccc1Nc1ccc(C(=O)O)cc1NC(C)=O
  >57 | ?
O=C(CCn1nc(-c2ccccc2)ccc1=O)N1CCCC1
  >57 | -1.8%
CC(C)N(Cc1nc(-c2ccccc2)no1)C(=O)CN(C)S(=O)(=O)c1ccccc1
  >57 | -14.8%
CCN(CC)C(=O)C1CCN(Cc2cccc(OCc3ccccc3)c2)CC1
  >57 | ?
O=C(CN1C(=O)COc2ccccc21)NCc1ccc(C(=O)O)cc1
  >57 | -3.3%
NC(=O)C1(N2CCCCC2)CCN(C2CC(=O)N(Cc3cccs3)C2=O)CC1 (configuration not stated)
  >57 | -9.6%
CC(C)(C)C(=O)CCN1C(=O)C2(OCCO2)c2ccccc21
  >57 | -5.4%
CC(C)NC[C@H](O)c1ccc2ccccc2c1
  >57&>57 | -24.1%
N#Cc1ccccc1NC(=O)CSc1nccn1CCc1ccccc1
  >57 | ?
O=C(CCCNS(=O)(=O)c1cccc2nsnc12)NCc1ccc(Cl)cc1
  >57 | -11.2%
O=C1NC2=C(C(=O)c3ccccc32)C(c2ccccc2)N1 (configuration not stated)
  >57 | ?
C[N+]12CCC(CC1)[C@@H](OC(=O)C(O)(c1ccccc1)c1ccccc1)C2
  >57 | -5.8%[3.58 µM]
CCC1CCCCN1C(=O)CSc1nnc(-c2c[nH]c3ccccc23)o1 (configuration not stated)
  >57 | -15.8%
CCOc1cc(C)c(Cl)cc1S(=O)(=O)NCc1ccco1
  >57 | -20.2%
O=C(Nc1ccccc1N1CCCC1)c1ccc2c(c1)OCO2
  >57 | -19.6%
CCOC(=O)C1=C(SCC(=O)Nc2ccccc2)NC(=O)C(C#N)C12CCCCC2 (configuration not stated)
  / | ?

Two successive entries already listed:
Results follow in this order: Prx2 Sm inh | Anthrax LT inh
O=C(Nc1ccccc1N1CCCC1)c1ccc2c(c1)OCO2
  >57 | -19.6%
CCOC(=O)C1=C(SCC(=O)Nc2ccccc2)NC(=O)C(C#N)C12CCCCC2 (configuration not stated)
  / | ?

High-throughput results from PubChem BioAssay.
